TRPML1 inh: blocks the human TRPML1 channel; Q9GZU1; TRPML1-inducible cells, Ca2+ dye fluorescence, FDSS; stronger effect = lower value; inhibition of EC80 agonist-evoked calcium signal; activity change, negative = inhibition, % (no concentration beside the values); 0.02% of 390,000 active; AID 624415; in the data active means activity change below about -50%; inconclusive means about -30% to -50%; inactive means above about -30%;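 also: stimulus is agonist 54-4 at its EC80 concentration; % is scaled to controls: 0 for no effect and ±100 for the full control effect; compound concentration not given in the record; the text of the record puts the active cut at -80%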
Target sequence (Q9GZU1 whole entry, looked up): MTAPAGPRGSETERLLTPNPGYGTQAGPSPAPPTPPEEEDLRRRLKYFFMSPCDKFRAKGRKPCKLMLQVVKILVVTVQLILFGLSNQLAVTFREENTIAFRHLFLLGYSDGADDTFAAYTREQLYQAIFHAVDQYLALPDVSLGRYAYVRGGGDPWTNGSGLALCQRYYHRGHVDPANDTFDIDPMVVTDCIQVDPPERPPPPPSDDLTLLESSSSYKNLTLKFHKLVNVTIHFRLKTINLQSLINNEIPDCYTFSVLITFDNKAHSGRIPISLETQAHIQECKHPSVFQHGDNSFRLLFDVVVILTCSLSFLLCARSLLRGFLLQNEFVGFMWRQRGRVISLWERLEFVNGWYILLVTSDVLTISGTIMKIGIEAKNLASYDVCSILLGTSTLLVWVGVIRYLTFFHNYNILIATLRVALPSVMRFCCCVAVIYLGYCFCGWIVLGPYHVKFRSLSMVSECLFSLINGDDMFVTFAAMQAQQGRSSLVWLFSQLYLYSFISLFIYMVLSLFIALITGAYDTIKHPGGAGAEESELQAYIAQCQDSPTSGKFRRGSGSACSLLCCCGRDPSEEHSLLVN
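TRPML1-DL cells, Tet-induced overnight (~16 h, 37 °C) at 1,500 cells/well, were loaded with Ca8 no-wash dye plus quencher for 45-90 min at room temperature. Compounds were pinned during FDSS kinetic reading; agonist 54-4 at EC80 (4 uM final) then added.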
TRPV1 PAM: human TRPV1 potentiation; TRPV1-expressing cells, Fluo-8 calcium influx, capsaicin EC20 potentiation; host cell line not named in the record; control for the full effect not named in the record; potentiation, % at 8.33 µM; 0.02% of 320,000 active; active means potentiation above 80%; inconclusive means 30% to 80%; inactive means below 30%; also: 0% is about no effect
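Cells expressing TRPV1 were dye-loaded with Fluo-8 and read kinetically: 10 s baseline, 3 min after compound (agonist portion), then 2 min after EC20 capsaicin (allosteric enhancer portion). Calcium-bound dye fluorescence at 480/520 nm.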
Sfp PPTase inh: inhibitors of Bacillus subtilis Sfp phosphopantetheinyl transferase. Q9F4F7. Potency, µM, without a hit: max response, negative = inhibition, usual class: inhibitors. AID 1490. 3.5% of 310,000 active. Biochemical Sfp PPTase activity, qHTS; active = well fitted inhibition curve with a large enough effect; inconclusive = small, poorly fitted or top-dose-only effect, or another doubt; inactive = no such curve, though single readings can be large or run the other way;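 also: the enzyme is Sfp with the accession as filed and its product quenches rhodamine fluorescence; potency is read from the fitted curve at half-maximal effect; 0% = enzyme reaction without inhibitor and -100% = no enzyme wells; top concentration of the series not given in the record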
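Step 1, compound plus 15 nM Sfp-PPTase, 15 min, room temperature. Step 2, add rhodamine-CoA (5 uM) and BHQ-2-YbbR (12.5 uM). Step 3, read 525/598 nm fluorescence at 0 and 30 min.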
ClpP mod: qHTS Assay for Activators of ClpP | ATP-dependent Clp protease proteolytic subunit (Bacillus subtilis (strain 168)), P80244 | purified B. subtilis ClpP, FRET peptide cleavage, 20 min | Potency, µM (doses to about 57.5 µM), for inactives: at the highest dose activity change, negative = active | 1.9% of 340,000 active; active = well fitted falling curve with a large enough effect; inconclusive = small, poorly fitted or top-dose-only effect; inactive = no such curve, though single readings can be large or run the other way; also: potency is read from the fitted curve at half-maximal effect; the source files actives as falling curves though it sought activators and does not explain the sign; nearly all actives have a fitted effect of over 65% in size; many hits overshoot -100%
Target sequence (P80244 whole entry, looked up): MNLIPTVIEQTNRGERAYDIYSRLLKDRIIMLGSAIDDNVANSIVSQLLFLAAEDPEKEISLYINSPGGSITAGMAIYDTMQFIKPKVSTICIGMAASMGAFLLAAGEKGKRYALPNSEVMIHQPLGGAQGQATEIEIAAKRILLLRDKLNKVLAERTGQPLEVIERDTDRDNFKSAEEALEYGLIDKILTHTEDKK
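Buffer: 100 mM Tris/HCl pH8, 100 mM KCl, 0.05% low protease BSA, 2.5% glycerol, 0.01% Tween-20. ClpP 10 microg/mL final; 20 min RT; delta FRET normalized to ADEP and DMSO controls.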
TRPML1 agonist: human mucolipin-1 channel agonism; Q9GZU1; TRPML1-expressing cells, Ca2+ dye fluorescence, FDSS; host cell line not named in the record; reference of the full effect not given here; activation, % (test concentration not listed); 0.12% of 410,000 active; in the data active = activation above about 50%; inconclusive = about 30% to 50%; inactive = below about 30%; also: 0% is about no effect; the text of the record puts the active cut at 80%
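Tetracycline-induced TRPML1-DL cells are seeded and incubated overnight before loading with a no-wash Ca2+ dye and quencher. Agonist activity is taken from the 110 s fluorescence read following compound pin-transfer on an FDSS, before EC80 54-4 challenge.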
PINK1 expr mod: PINK1 expression modulation | PINK1 immunofluorescence, high-content cytometry, 24 h | Potency, µM (doses to about 76.6 µM), without a hit: at the top dose activation (PINK1 increase), actives largely listed as activators | 0.2% of 410,000 active | AID 624263; active = well fitted activation curve with a large enough effect; inconclusive = small, poorly fitted or top-dose-only effect; inactive = flat fitted curve, though single readings scatter; cell line not stated here;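 also: potency is read from the fitted curve at half-maximal effect; % of control where 0% means no effect; nearly all actives have a fitted effect of over 65% in size; a mitochondrial uncoupler was the plate control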
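Decision-based qHTS: stable cells, 24 h exposure to five compound concentrations, CCCP as control. Fixed cells stained for PINK1 plus nuclear, mitochondrial and cell markers, cytometer read.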
Menin-MLL FL inh: inhibitors of human menin-MLL interaction, wild-type MLL peptide; FP activity change, % at 61.4 µM; Fluorescence polarization, fluorescein-MLL peptide displacement from menin; 290,000 tested, under 10 active; AID 1766; inconclusive = falling polarisation curve, or a change in total fluorescence; inactive = total fluorescence flat and polarisation flat or rising; no compound was filed as active; the % refers to the polarisation; negative = inhibition;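 also: % of control where 0% means no effect; inhibitors lower the polarisation; unlabelled MLL peptide was the positive control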
* marks the source's active call; other numbers are inactive results; u = inconclusive; x = not tested or not shown; [ ] = dose if it differs, or a comment. Not a hit list; about 4.4% have a hit in one of these screens.

Structure,TRPML1 inh,TRPV1 PAM,Sfp PPTase inh,ClpP mod,TRPML1 agonist,PINK1 expr mod,Menin-MLL FL inh
CCOC(=O)C1=CCC(c2ccccc2C(F)(F)F)N(S(=O)(=O)c2ccc(C)cc2)C1 (configuration not stated),72,x,x,-2.8%,2.7,5.2%,x
Cc1nn(-c2ccc(Cl)cc2)c2sc(C(=O)c3c(N)n(C)c(=O)n(C)c3=O)cc12,-9,14,10%,-0.1%,-0.9,0.5%,0.9
O=C(CCN1C(=O)C2CC=CCC2C1=O)Nc1cc(C(F)(F)F)ccc1N1CCCC1 (configuration not stated),-10,1,x,-1.3%,1.2,2.8%,x
O=C(CN1C(=O)C2CC=CCC2C1=O)NCC(=O)Nc1ccc(F)c(F)c1F (configuration not stated),2,-10,4%,x,-0.3,2.3%,1.6
C=CCO/N=C(\C)c1c(O)c(C)c(-c2ccccc2)n(-c2ccccc2)c1=O,-17,u,-5%,-1.9%,0.7,-0.6%,0.2
COc1ccc(Cl)cc1NC(=S)NNC(=O)C1(C)CC1(Cl)Cl (configuration not stated),-1,3,1%,x,-0.3,0.4%,-0.4
CC(=O)Nc1ccc(S(=O)(=O)Nc2cc(C)cn(Cc3ccccc3)c2=O)cc1,-8,-1,-11%,x,0.4,20%,12
COc1cccc(/C=N/N2CCOCC2)c1O,9,-3,21%,x,0.2,9.1%,3.3
O=C(CN1C2=NCCN2c2ccccc21)c1ccc2c(c1)OCO2,9,2,7%,-0.6%,-0.1,x,1.4
C[C@H]1CN([C@@H](C)CO)C(=O)Cc2cc(NS(C)(=O)=O)ccc2O[C@@H]1CN(C)CC1CC1,3,x,x,0.3%,-0.7,0.5%,x
O=C(c1cc2nc(-c3ccc(F)cc3)cc(C(F)(F)F)n2n1)N1CCCC1,x,-7,12%,x,x,x,2.0
Cc1ccc(NC(=O)COC(=O)C(CC(C)C)N2C(=O)C3CC=CCC3C2=O)c(C)c1 (configuration not stated),3,-4,21%,0.9%,-0.3,2.0%,-0.8
Nc1nc(=S)c2ncn(C3OC(CO)C(O)C3O)c2[nH]1 (configuration not stated),-4,16,6.3µM*,1.6%,-0.2,-1.2%,2.9
O=C(COc1ncnc2sccc12)NC1CCCc2ccccc21 (configuration not stated),-2,4,8%,-3.0%,0.3,0.1%,6.2
CS(=O)(=O)Nc1ccccc1C(=O)NCC1(N2CCCCC2)CCCCC1,2,u,17%,x,-0.3,0.5%,-2.7
COC(=O)COc1ccc2oc(-c3ccc(OC)cc3)cc(=O)c2c1,-15,x,x,-15%,2.6,-0.8%,x
O=C(Nc1ccccc1F)NC1CC1,0,9,11%,x,0.6,-0.2%,-2.6
CC(=O)Nc1cc(-c2cccc(C(=O)N(C)C)c2)cn2c(-c3ccc(F)c(Cl)c3)cnc12,x,x,x,u,-0.6,0.0%,x
Cc1c(NC(=O)CN2C(=O)NC(C)(c3ccc(OC(F)F)cc3)C2=O)c(=O)n(-c2ccccc2)n1C (configuration not stated),13,-6,x,-3.7%,-0.2,-0.6%,x
O=C(CCCCCCCC(=O)c1ccccc1)c1ccccc1,17,-21,11%,0.3%,2.8,1.1%,0.6
COc1ccc(C)cc1NC(=O)c1ccoc1C,-8,-1,-2%,1.7%,-0.6,2.6%,1.6
O=C(CCNS(=O)(=O)c1ccc(Br)s1)NCc1ccc(F)cc1,35,-6,16%,x,0.5,0.4%,-0.1
O=C(N/N=C/c1ccncc1)c1cccs1,x,7,17%,0.5%,x,-0.8%,-0.2
O=C(/C=C/c1c(Cl)cccc1Cl)NCc1ccco1,14,13,10%,-1.6%,2.0,1.2%,-2.3
Cc1cccc(CC(=O)Nc2c(C(=O)Nc3cccc(F)c3)oc3ccccc23)c1,-2,x,x,u,-0.7,4.8%,x
O=C(COC(=O)c1ccc[nH]c1=O)NCCc1ccc(F)cc1,-12,10,-9%,x,0.6,0.1%,-1.7
CCCc1[nH]nc2c1C(c1ccc(OCCN3CCOCC3)c(OCC)c1)C(C#N)=C(N)O2 (configuration not stated),-8,2,8%,-0.3%,1.3,-2.9%[38.3 µM],3.8
COc1ccc(CCC(C)Nc2ccc(F)cc2)cc1 (configuration not stated),7,-1,1%,-5.7%,0.2,-2.7%[38.3 µM],1.9
CN(C)c1ccc(C(=O)/C=C/c2ccc(Br)cc2)cc1,-3,16,-15%,1.6%,1.6,u,9.6
CCOc1cccc(CN2CCC(Oc3ccc(C(=O)N4CCCC4)cc3)CC2)c1,29,-12,5%,-1.7%,-0.5,-1.0%,x
Fc1ccc(-c2nnc(CSc3nnc(-c4ccc5c(c4)OCO5)o3)o2)cc1,-3,8,u,-5.7%,3.6,0.2%,6.2
COc1ccc(NC(=S)NCc2ccccc2)c(OC)c1,-5,-12,25%,x,0.2,1.0%,-3.1
O=C(Nc1cccc(Cl)c1Cl)c1cc(S(=O)(=O)N2CCCCC2)ccc1F,52,x,x,118%,0.6,0.9%,x
COc1ccc(S(=O)(=O)NCCc2cn3ccsc3n2)cc1,9,x,x,-2.6%,0.7,0.3%,x
COCCn1c(=O)c(-c2cccc(C#N)c2)nc2cnc(N3CCNCC3)nc21,x,x,4%,x,x,-0.3%,0.5
COc1cc(NC(=O)C(=O)NNC(=O)C2CCCCC2)c(OC)cc1Cl,0,u,-4%,-0.2%,2.0,-2.2%,5.0

Five records drawn at random from those above:
Structure,TRPML1 inh,TRPV1 PAM,Sfp PPTase inh,ClpP mod,TRPML1 agonist,PINK1 expr mod,Menin-MLL FL inh
O=C(CCNS(=O)(=O)c1ccc(Br)s1)NCc1ccc(F)cc1,35,-6,16%,x,0.5,0.4%,-0.1
Cc1c(NC(=O)CN2C(=O)NC(C)(c3ccc(OC(F)F)cc3)C2=O)c(=O)n(-c2ccccc2)n1C (configuration not stated),13,-6,x,-3.7%,-0.2,-0.6%,x
CCOC(=O)C1=CCC(c2ccccc2C(F)(F)F)N(S(=O)(=O)c2ccc(C)cc2)C1 (configuration not stated),72,x,x,-2.8%,2.7,5.2%,x
COc1ccc(Cl)cc1NC(=S)NNC(=O)C1(C)CC1(Cl)Cl (configuration not stated),-1,3,1%,x,-0.3,0.4%,-0.4
C[C@H]1CN([C@@H](C)CO)C(=O)Cc2cc(NS(C)(=O)=O)ccc2O[C@@H]1CN(C)CC1CC1,3,x,x,0.3%,-0.7,0.5%,x

Further compounds follow.
Structure,TRPML1 inh,TRPV1 PAM,Sfp PPTase inh,ClpP mod,TRPML1 agonist,PINK1 expr mod,Menin-MLL FL inh
CCn1c(COc2ccccc2)nnc1SCC(=O)C(C)(C)C,-3,-13,10%,-1.2%,0.4,0.9%,-2.2
COc1ccccc1OCC(=O)NN1Cc2ccccc2C1=N,-11,-2,14%,0.6%,-0.2,-0.2%,2.2
COC(=O)c1cc(S(=O)(=O)N2CCN(C(=O)c3ccco3)CC2)cn1C,-15,0,19%,0.2%,1.1,-0.1%,x
COc1ccc(CNC(=O)c2cc3cccc(O)c3oc2=N)cc1,-8,-10,-16%,5.1%,-0.8,0.5%,1.8
COCCNC(=S)N1CCCN(c2nc3cc(C)ccc3cc2C#N)CC1,51,-6,2%,-23%,-1.1,0.6%,-0.8
c1ccc(NC(c2ccccc2)c2ccncc2)cc1 (configuration not stated),-16,u,5%,-1.0%,-1.1,-0.2%,-3.9
CCn1ccc(C(=O)Nc2ccccc2Cl)n1,23,-15,-8%,-0.2%,0.0,1.2%,-0.4
CCCCn1c(CCCNC(=O)c2ccco2)nc2ccccc21,1,11,-4%,0.2%,0.7,-0.2%,0.8
CCN1CCN(CC(=O)Nc2nc3ccccc3s2)CC1,x,u,u,0.3%,x,-0.3%,-4.5
CCc1cccc(NC(=O)CN2C(=O)NC3(CCCCCCC3)C2=O)c1,7,-8,17%,-0.8%,0.6,u,2.5
O=C(O)C1CC(=O)N(c2ccc(OCc3ccccc3Cl)cc2)C1 (configuration not stated),5,-13,21%,-0.2%,0.1,-0.9%,-0.5
Cc1cc(C)c(CN2CCC(N3CCC(C(=O)NCC4CCCO4)CC3)CC2)cc1C (configuration not stated),33,3,26%,0.2%,-0.2,0.1%,2.3
Cc1cccn2c(=O)c3cc(C(=O)NCc4ccco4)c(=N)n(CCOCCO)c3nc12,-11,9,u,-6.1%,1.5,0.7%,4.6
COc1cccc(C(=O)NC2CC3CCCC(C2)N3CC(=O)Nc2ccccc2)c1 (configuration not stated),-24,15,-12%,-0.7%,2.2,-2.8%,-1.5
COc1ccc(C(=O)COC(=O)c2ccccn2)c(OC)c1,13,x,x,x,2.0,-2.6%,x
N#CC1=C(N)Oc2c(O)cc3ccccc3c2C1c1ccsc1 (configuration not stated),3,-11,-8%,x,1.6,-1.7%,15
COc1ccc2c(c1)NC(C)(C)C=C2C,-3,3,u,x,-0.4,13%,6.5
COc1cc(NC(=O)c2ccccc2)c(OC)cc1NC(=O)Cc1ccc(C)cc1,0,-12,10%,x,0.0,4.6%,0.1
Cc1nc2ccc(NC(=O)c3ccco3)cc2nc1C,-8,3,23%,-15%,0.7,-0.7%,-1.5
CCCN=C(N)/C(C(=O)OCC)=C(\O)c1ccc(OC)cc1,10,-15,-16%,-0.8%,1.3,3.7%[38.3 µM],1.4
CC(C)CNC(=S)N1CCN(c2nc3ccccc3s2)CC1,9,-17,-3%,1.2%,0.7,3.9%,-3.7
CCN(CC)S(=O)(=O)c1ccc(OC)c(NC(=S)Nc2cccc(C)c2)c1,x,12,7%,x,x,x,-5.7
COc1ccc(OC)c(NC(=O)CSc2nnc(CNC(=O)c3cccs3)o2)c1,22,-5,14%,0.5%,-0.8,1.0%,x
O=C(C[C@H]1C[C@H](C(=O)N2CCCCC2)[C@@]2(CCc3ccccc3)c3[nH]c4ccc(Cl)cc4c3CCN2C1=O)NCc1cccc(C(F)(F)F)c1,-15,x,x,-3.4%,-0.1,6.5%,x
Cc1ccc(NC(=O)COc2ccc(C(=O)c3ccccc3)cc2)c(O)c1,1,-4,11%,1.6%,2.2,3.0%,2.3

From PubChem
